Calb biofilm kill: mixtures killing C. albicans biofilm. C. albicans biofilm persisters + clotrimazole, fluorescence viability; primary screen in compound mixtures of four per well. inhibition, % at 7.6 µM. 120,000 compounds, 0.02% hits;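 active = inhibition above 30.3% in the primary screen of four-compound pools, then above 30% when the compound was retested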;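 note: compounds exposed to preformed 24 h biofilms for 48 h; the number belongs to the whole pool; some results filed as inactive read as strong as hits; inactives centre near 12; 0% = biofilm with clotrimazole alone and 100% = kill control; retested singly at about 60 µM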
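Assay system: C. albicans biofilms / Medium: RPMI/MOPS medium, pH 7.0 / Schedule: biofilm formation 24 h, compound exposure 48 h, 37 °C / Measured by: Alamar Blue fluorescence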
Starred values were filed as active, the others as inactive; & = joins results of further samples. The list is partial; count on the stated rates, not on these rows.

Sample of the layout:
#	Molecule	Calb biofilm kill
1	Cc1cc([N+](=O)[O-])nn1CCCC(=O)Nc1ccc(Cl)cc1Cl	11
2	COc1ccc(/C=N/Nc2c(Cl)cc(Cl)cc2Cl)cc1CN1CCOCC1	12

This part in full, previewed entries included:
#	Molecule	Calb biofilm kill
1	Cc1cc([N+](=O)[O-])nn1CCCC(=O)Nc1ccc(Cl)cc1Cl	11
2	COc1ccc(/C=N/Nc2c(Cl)cc(Cl)cc2Cl)cc1CN1CCOCC1	12
3	CN(Cc1ccccc1)C(=O)C1CCCN(Cc2cccc(Cl)c2)C1 (centres undefined)	16
4	COc1ccc(-c2csc3ncnc(Oc4cccc5ccc(C)nc45)c23)cc1	12
5	COc1ccc(-c2nc(C)c(C(C)=O)n2O)cc1[N+](=O)[O-]	8
6	COC(=O)c1ccc(CSc2nnc(-c3ccncc3)o2)o1	6
7	COCC(C)n1c(SCc2cc(C(=O)OC)c(C)o2)nc2ccccc2c1=O (centres undefined)	4
8	C/C(=N\NC(=O)c1cccs1)c1ccc2c(c1)OCO2	3
9	CCC(=O)NNc1nc2c(C)cccc2s1	26
10	Cc1c(N2CCCC2)cc2c(c1NC(=O)c1ccccc1Cl)C(C)(C)CC2(C)C	17
11	C/C(=N\NC(=O)CSc1nc(C)cc(C)n1)c1ccc2c(c1)OCCO2	12
12	COc1ccc(C(=O)CSc2n[nH]c(C)n2)cc1[N+](=O)[O-]	0
13	O=C(NCCN1CCOCC1)c1cc(Cl)ccc1[N+](=O)[O-]	18
14	COc1ccc(-c2cc3ccccc3s2)cc1[C@H]1[C@H]2C=CC[C@@H](C)[C@@H]2C(=O)N1Cc1ccccc1	16
15	CSc1ccccc1NC(=O)CN1c2ccccc2CC1C (centres undefined)	19
16	O=C(CSc1cccc2cccnc12)Nc1ccc(S(=O)(=O)N2CCOCC2)cc1	49
17	Cc1nc(-c2coc3cc(C)c(N=O)c(O)c3/c2=N\N)cs1	18
18	O=C1Cc2ccccc2Sc2ccc(O)cc21	8
19	COc1ccc(C2SCC(=O)N2c2nc3ccccc3s2)cc1 (centres undefined)	5
20	CC(C)CC(c1nnnn1C(C)(C)C)N1CCN(Cc2ccccc2)CC1 (centres undefined)	12
21	CC(C)C(=O)Nc1ncc(Cc2cccc(Cl)c2)s1	10
22	CC(C)C(NC(=O)c1ccccc1Cl)C(=O)OCc1nc2scc(-c3ccccc3Cl)c2c(=O)[nH]1 (centres undefined)	10
23	C=C(C(=O)c1ccccc1)C(C)CC(=O)c1ccccc1 (centres undefined)	17
24	C[n+]1ccccc1/C=N/O	14&22
25	FC(F)(F)c1ccc(NC(=S)NCc2ccccc2)cc1	11

In the list so far, these contain a furan ring, fused or not:
#	Molecule	Calb biofilm kill
6	COC(=O)c1ccc(CSc2nnc(-c3ccncc3)o2)o1	6
7	COCC(C)n1c(SCc2cc(C(=O)OC)c(C)o2)nc2ccccc2c1=O (centres undefined)	4

Additional compounds follow:
#	Molecule	Calb biofilm kill
26	COC(=O)c1cccnc1NC(=S)NC1CCCCC1	8
27	Cc1cc(-c2csc(N)n2)c(C)n1-c1ccc(Cl)c(Cl)c1	13
28	CC1CCCC(NC(=O)COC(=O)/C=C/c2ccc(S(=O)(=O)N3CCOCC3)cc2)C1C (centres undefined)	16
29	CCNC(=O)/C(C#N)=C/c1c(N(Cc2ccccc2)Cc2ccccc2)nc2ccccn2c1=O	11
30	COc1ccc2nc(SCc3ccccc3C)nc(C)c2c1	14
31	Cc1cc2ccccc2c(=O)n1CC(=O)NCCC1=CCCCC1	12
32	Cc1ccc(C(=O)N/N=C\c2ccccc2[N+](=O)[O-])cn1	15
33	CC(=O)Nc1ccc(S(=O)(=O)N(Cc2ccccc2)c2ccccc2)cc1	13
34	C[C@@H](CN1C2=NC[C@H](Cc3ccc(O)cc3)N2C[C@H]1Cc1ccc(O)cc1)NC(=O)CCC1CCCCC1	10
35	COc1cc(/C=C/C(=O)NC(C)CCc2ccccc2)cc(OC)c1OC (centres undefined)	20
36	CC(=O)Nc1ccc(NC(=O)C(C)OC(=O)/C=C/c2cccs2)cc1 (centres undefined)	7
37	CCCC(=O)N1CCCC(c2nc(-c3cccc(OC)c3)no2)C1 (centres undefined)	21
38	O=C(COC(=O)c1cccnc1Cl)Nc1cccc(S(=O)(=O)N2CCCCC2)c1	3
39	CCCCNS(=O)(=O)c1ccc(S(=O)(=O)n2cnc3ccccc32)cc1	9
40	O=[N+]([O-])c1cc(-n2cccc2)ccc1N1CCOCC1	1
41	COc1cc2c(cc1OC)C(CSc1ccccc1C(=O)O)=NC(C)(C)C2	13
42	COC(=O)C1Cc2ccccc2CN1C(=O)CCl (centres undefined)	11
43	CC(C)(C)OCC(O)CN1CCN(C(=O)c2ccccc2)CC1 (centres undefined)	-23
44	COC(=O)CCC(=O)N1CCOCCOCCOCC1	8
45	CCOCCCn1cnc2c3cc(F)ccc3n(C)c2c1=O	9
46	CCN(CC)C(=O)Cn1nnc(-c2ccc(S(C)(=O)=O)cc2)n1	15
47	CC(=O)Nc1ccc(N=Nc2ccccc2)cc1	2
48	CCOP(=O)(/C(C#N)=C(\C)O)c1ccccc1 (centres undefined)	18
49	Cc1ccc(NC(=O)Nc2cccn(Cc3c(F)cccc3Cl)c2=O)cc1	17
50	COC(=O)C1=C(Nc2ccccc2NC(=O)c2ccccc2C(=O)O)CSC1	25

Values in list order from the entries so far.
Entries 29 to 32 in Calb biofilm kill: 11, 14, 12, 15

(further entries)
#	Molecule	Calb biofilm kill
51	O=c1cc(-c2cccc(Cl)c2)oc2cccc(O)c12	9
52	C/C(=N\Nc1cccc(Cl)c1)C1(C)N(O)C(C)(C)C(c2ccco2)=[N+]1[O-] (centres undefined)	15
53	O=C(/C=C/c1ccc(Cl)cc1Cl)Nc1ccncc1	5
54	CCOC(=O)N1CCN(C(=S)NC(=O)c2ccc(Br)cc2)CC1	0
55	CCOC(=O)C1(Cc2ccc(OC)cc2)CCN(C(=O)Cc2cccnc2)CC1	5
56	CCOC(=O)NC(=O)COC(=O)CCCSc1nc2ccccc2s1	-7
57	COc1ccc(N=C2NC(=O)/C(=C/c3ccco3)S2)cc1	12
58	Cc1ccc(NC(=O)C2(NC(=O)c3ccccn3)CCCCC2)cc1Br	18
59	COCCN(C(=S)Nc1ccc(OC)cc1)C(C)c1cccs1 (centres undefined)	18
60	O=C(Nc1ccc(N2C(=O)CCC2=O)cc1Cl)c1cccs1	24
61	O=C(c1ccc(COc2ccc(Br)cc2)o1)N1N=C(C(F)F)CC1(O)C(F)F (centres undefined)	0
62	Brc1ccc(-n2cc(-c3ccccc3)c3c(NN4CCOCC4)ncnc32)cc1	11
63	COCCCn1nnnc1SCC(=O)Nc1ccc2c(c1)OCCO2	9
64	Cc1ccc(-c2cc(-c3n[nH]c(=S)n3C)c3ccccc3n2)cc1	4
65	Cc1cc(OCC#N)nc(N)n1	9
66	CC(=O)c1oc2ccccc2c1NC(=O)CN1CCCCC1	4
67	C/C(=N\Nc1ccc(Cl)c(C(=O)O)c1)c1ccc2c(c1)OCO2	17
68	CC(NC(=O)c1cc(=O)[nH]c2ccc(Br)cc12)c1ccccc1 (centres undefined)	16
69	COc1ccccc1N1CCN(C2CCN(C(=O)COc3ccccc3)CC2)CC1	17
70	COCCN(CCOC)S(=O)(=O)c1ccc(C(=O)Nc2nnc(COC)o2)cc1	5
71	O=C1c2ccccc2C(=O)N1n1cccc1	-10
72	O=C(CSc1nc2ccccc2o1)N/N=C/c1ccc(O)c(O)c1	14
73	N#CC1(c2ccc(NC(=O)c3ccccc3F)cc2)CCCC1	16
74	COc1ccc(/C=N/NC(=O)c2ccc(CSc3nncn3C)cc2)cc1OC	10
75	CCn1c(C)cc(/C=C2/SC(=S)NC2=O)c1C	15

Excerpt: compounds 72–75
#	Molecule	Calb biofilm kill
72	O=C(CSc1nc2ccccc2o1)N/N=C/c1ccc(O)c(O)c1	14
73	N#CC1(c2ccc(NC(=O)c3ccccc3F)cc2)CCCC1	16
74	COc1ccc(/C=N/NC(=O)c2ccc(CSc3nncn3C)cc2)cc1OC	10
75	CCn1c(C)cc(/C=C2/SC(=S)NC2=O)c1C	15

Other structures follow.
entry | Compound | Calb biofilm kill
76 | Oc1ccc(/C=N/Nc2nc(-c3cccnc3)nc3ccccc23)c(O)c1 | 14
77 | CN(C(=O)CC1C(=O)NCCN1C/C=C/c1ccccc1)C1CCOCC1 (centres undefined) | 30
78 | CCc1nnc(NC(=O)/C=C/c2ccco2)s1 | 18
79 | Cc1c(C)n(CCC(=O)O)c2ccccc12 | 6
80 | CC(=O)CC(C)(C)S(=O)(=O)c1ccc(Oc2ccc(S(=O)(=O)C(C)(C)CC(C)=O)cc2)cc1 | 16
81 | COCCSc1ccccc1C(=O)NCc1cccnc1 | 9
82 | O=C(CCc1nc2ccccc2[nH]1)NCc1ccc2c(c1)OCO2 | 6
83 | Cc1cc(C)nc(N2C(=O)CC(Cc3ccc(Cl)cc3)C2=O)n1 (centres undefined) | 2
84 | Cn1c(NC(=O)Cc2cccc3ccccc23)cc(=O)n(C)c1=O | -6
85 | CCC(C)NC(=O)c1ccccc1-c1ccccc1C(=O)NC(C)CC (centres undefined) | 15
86 | COc1ccc([N+](=O)[O-])cc1NC(=O)C1(c2ccccc2)CCOCC1 | 25
87 | CC(=O)O[C@]1(C(C)=O)CC[C@H]2[C@@H]3C=C(C)C4=CC(=O)CC[C@]4(C)[C@H]3CC[C@@]21C | 22
88 | CC(C)c1ccc(NC(=O)N2CCc3ccccc3C2)cc1 | -2
89 | CCCn1c(SCC(=O)NC2CCCc3ccccc32)n[nH]c1=O (centres undefined) | 9
90 | N#CC(C#N)=C1NC2(CCCC2)Cc2ccccc21 | -10
91 | CN(C)CCC1CCN(c2cc(C#N)c(C#N)cc2[N+](=O)[O-])CC1 | 16
92 | COc1ccc2c(c1)O[C@H](c1ccc3c(c1)OCO3)[C@@H](O)C2=O | -4
93 | Fc1ccc(CNc2nc(-c3ccccc3)nc3ccccc23)cc1 | 10
94 | O=C(COC(=O)/C=C/c1cccs1)Nc1ccccc1Cl | -2
95 | CCNCc1cc(Cl)c(OCc2ccccc2)c(OCC)c1 | 0
96 | CC1(C)C(=O)Nc2ccccc2N1C(=O)CSc1nnc2ccccn12 | 2
97 | COc1ccccc1/C=C/C(=O)N1CCC(c2ccccc2)C1 (centres undefined) | 23
98 | CN1CCN(c2ccc(C(=O)NC3CCCCC3)cc2[N+](=O)[O-])CC1 | 16
99 | COc1ccccc1N1CCN(C(=O)COc2ccc(S(=O)(=O)NC(C)(C)C)cc2)CC1 | 23
100 | COc1cc(NC(C)=O)ccc1-c1cc2ccccc2oc1=O | 19
101 | Cc1ccc(C)c(NC(=O)CSc2nnc(C)c(=O)n2N)c1 | 19
102 | CC(=O)C1C(c2ccc(O)cc2)NC(=O)NC1(O)C(F)(F)F (centres undefined) | 7
103 | CC(NC(=O)c1cc(-c2ccccc2)nc2ccccc12)C1CCCO1 (centres undefined) | 26
104 | CC(=O)NC(Cc1ccc(C(C)C)cc1)C(=O)NC1CCN(C(=O)c2cccc(C)c2)CC1 (centres undefined) | 21
105 | Cc1nc2ccc(NC(=S)NCc3ccccc3)cc2nc1C | 13
106 | Cc1cc(NC(=O)CN(C)S(=O)(=O)c2cccc(Cl)c2)no1 | 8
107 | CC(C)Cc1c2c([nH]c(=S)c1C#N)CCCC2 | 8
108 | Cc1ccc(NC(=O)COC(=O)/C=C/c2cccc(Cl)c2)cc1S(=O)(=O)N1CCOCC1 | 11
109 | CCOC(=O)c1cn2nc(Oc3ccc(NC(C)=O)cc3)ccc2n1 | 23
110 | COCCCNc1nnc(Cc2ccccc2)c2ccccc12 | 9
111 | Clc1ccccc1Cc1noc(CN2CCN(Cc3ccccn3)CC2)n1 | 59
112 | COc1ccc(C(=O)N2CCN(c3ccccn3)CC2)cc1[N+](=O)[O-] | 27
113 | COc1ccc(C(=O)NC(=S)Nc2ccc(Cl)c(C(=O)O)c2)cc1 | 11
114 | CCOc1cc2[nH]c(=O)n(Cc3ccc(C(=O)NCCCN4CCCC4=O)cc3)c(=O)c2cc1OCC | 14
115 | CC1(C)Cc2nc3sc4c(SCC(=O)O)ncnc4c3cc2CO1 | 9
116 | CCOC(=O)Cc1csc(SCC(=O)NC2CCCCC2)n1 | 12
117 | O=C(Cc1ccc([N+](=O)[O-])cc1)N1N=C(C2CC2)CC1(O)C(F)(F)F (centres undefined) | 12
118 | Cc1ccc(C(=O)NC2CCN(C(=O)NC3CCCCC3)CC2)cc1 | 13
119 | Clc1ccc(-c2ncc3ccccn23)cc1 | 4
120 | COc1ccccc1-c1nnc(SCC(=O)Nc2ccc(S(N)(=O)=O)cc2)n1N | 4
121 | CCOc1ccc(S(=O)(=O)c2c(C(=O)c3ccccc3)cnc3cc4c(cc23)OCCO4)cc1 | 1
122 | NS(=O)(=O)c1cccc(NC(=O)COc2ccc([N+](=O)[O-])cc2)c1 | 16
123 | Cc1ccc(C(=O)Nc2ccc(N3CCCC3)cc2)c(C)c1 | 14
124 | Oc1ccc(/C=N/NC(=S)NC2CC3CCC2C3)cc1 (centres undefined) | 13
125 | O=C(Nc1nnc(C2=COCCO2)o1)c1ccc(S(=O)(=O)N2CCOCC2)cc1 | 5
126 | C=CCn1c(N/N=C/c2ccc(O)cc2)nc2ccccc2c1=O | 18
127 | CCCNC(=O)C1CC(c2cccc(F)c2)=NO1 (centres undefined) | 15
128 | CCOC(=O)c1ccc(NC(=S)NCc2ccco2)cc1 | 22
129 | COc1cc(OC)c(C(=O)OCC(=O)NCCc2ccccc2)cc1OC | 17
130 | OCC(O)CN(c1ccccc1)c1ccccc1 (centres undefined) | 11
131 | CC(=O)C1=C(C)OC2(O)c3ccccc3C(=O)C12O (centres undefined) | 17

(continued)
entry | Compound | Calb biofilm kill
132 | O=C(/C=C\c1cccs1)N1CCN(Cc2ccc3c(c2)OCO3)CC1 | 13
133 | COc1ccc(C2=NN(c3nc4ccccc4s3)C(=O)/C2=C\N(C)C)cc1 | -3
134 | NC(=S)N1CCCc2ccccc21 | 11
135 | CN(/C=C/c1c([N+](=O)[O-])c(=O)n(C)c(=O)n1C)c1ccccc1 | 18
